MgrA DNA FP: S. aureus MgrA-DNA binding modulation. inhibition, %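 (about 10 µg/mL by stock and volumes)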. AID 602314. fluorescence polarization. 0.13% of 84,000 active;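 active = above 50% in either of two replicates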;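 note: 0% = protein plus DNA without compound and 100% = DNA alone without protein; higher means less MgrA bound to DNA so lower polarization; one replicate is shown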
Sa helicase inh: S. aureus DNA helicase inhibition | 0.05% of 120,000 active | purified S. aureus helicase, fluorescence unwinding assay; about half of the hits fall short of the stated cut | inhibition, %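 (tested at about 80 µM)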;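 active = both duplicates at 50% or more, or one of them with a favoured structure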;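 note: 0% = mean of negative control wells and 100% = mean of positive control wells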
An asterisk follows results filed as active; . = not tested or not shown; & = joins results of further samples.

SMILES	MgrA DNA FP	Sa helicase inh
CCn1cc(CCC(=O)NCc2cccs2)c2ccccc21	.	18
O=S(=O)(Cc1ccccc1)NCc1ccccc1	-1.7	6
COC(=O)c1cc(S(=O)(=O)N2CCOCC2)cn1C	1.2	16
COc1ccc(/C=N/NC(N)=S)cc1	.	23
COc1ccc(-c2cc(-c3nc4c5ccccc5ncn4n3)[nH]n2)cc1	0.9	-12
Cc1cccc(C(=O)NNc2ncnc3c2cnn3-c2ccc(Cl)cc2)c1	.	23
COC(=O)c1ccc(CN2CCN(Cc3ccc(C(=O)OC)o3)CC2)o1	3.7	16
CC1CN(/C(N)=N/S(=O)(=O)c2cc(C(F)(F)F)cc(C(F)(F)F)c2)CC(C)O1 (stereo unspecified)	1.6	.
CSC(=Nc1ccc(C(C)C)cc1)NC#N	1.9	.
OC(c1ccccc1)C(CN1CCCCC1)CN1CCCCC1 (stereo unspecified)	.	2
COc1ccc(S(N)(=O)=O)cc1C(=O)OCc1cc(=O)oc2cc(NC(C)=O)ccc12	.	-13
COc1cccc(N/C(N)=N/c2nc(CSc3ccccn3)cc(=O)[nH]2)c1	.	23
CC(C)(C)OC(=O)NCCCNC(=S)Nc1ccc2c(c1)OCCO2	1.3	.
Cc1cc(C(=O)N(C/C=C/c2ccccc2)c2ccc3c(c2)OCCO3)no1	.	-15
COC(=O)c1c(SCc2ccc(C#N)cc2)nc(=O)[nH]c1C	.	-10
O=S(=O)(NCCCc1nc2ccccc2[nH]1)c1ccccc1	-1.1	10
Cc1ccc(S(=O)(=O)Nc2nc(C)cc(-n3nc(C)cc3C)n2)cc1	0.4	.
O=C(CCNC(=O)c1ccccc1Cl)Nc1cc(Cl)ccc1N1CCOCC1	.	-22
O=C(CCSc1ccccc1)Nc1nccs1	1.0	6
Oc1c(C(Nc2ccc(F)cc2)c2ccncc2)ccc2cccnc12 (stereo unspecified)	.	-23
O=C(COC(=O)c1cc2c(s1)CCCCC2)c1cccs1	.	-10
COc1ccccc1N1CCN(C(=O)CC2SC(N)=NC2=O)CC1 (stereo unspecified)	.	-4
CCOC(=O)Oc1cc(N)c(Cl)cc1Cl	0.9	.
Cc1ccc(N2C(=O)C(N3C(=O)CCC3=O)C2c2ccc(F)cc2)cc1 (stereo unspecified)	1.2	-3
Nc1n[nH]c2nc(C(F)(F)F)cc(=O)n12	-0.7	-4
CCOC(=O)c1[nH]c2ccccc2c1NC(=O)COc1ccccc1	.	8
Cc1sc(/N=C/c2ccc(Cl)c(Cl)c2)c(C#N)c1C	-0.9	2
Cc1ccc(C(C)NC(=O)c2c(-c3ccccc3Cl)noc2C)c(C)c1 (stereo unspecified)	1.2	.
CCc1ccc(C2N3CC4(C)CN2CC(C)(C3)C4)cc1 (stereo unspecified)	.	-12
Cc1cc(NN)nc(SCC(=O)NN)n1	-0.4	9
CC1CCN(c2ncnc3ccc(Br)cc23)CC1	3.3	15
Cc1ccccc1-c1nc(CS(=O)CC(=O)NC(C)C)c(C)o1 (stereo unspecified)	-0.7	15
CC1Cc2ccccc2N1S(=O)(=O)c1ccc2nc(-c3ccccc3)[nH]c2c1 (stereo unspecified)	-12	3
O=C(CSc1nc2ccccc2nc1SCC(=O)N1CCCCC1)N1CCCCC1	-1.9	3
O=C1CC(c2ccccc2Cl)Cc2nc(NCC3CCCO3)ncc21 (stereo unspecified)	1.2	23
COc1cccc(OCC(=O)Nc2cccc(Cl)c2)c1	-0.7	1
CC(NCC(O)Cn1nnnc1-c1ccccc1)c1ccccc1 (stereo unspecified)	1.1	12
CN1/C(=C\C=Nc2cccc(C(=O)O)c2)C(C)(C)c2ccccc21	.	7
CC(N)C(=O)Nc1ccccc1-c1ccccc1 (stereo unspecified)	1.9	12
CC1(C)CC(=O)C2=C(C1)OC(N)=C(C#N)C21C(=O)N(CCc2ccccc2)c2ccccc21 (stereo unspecified)	1.1	-3
O=C(Nc1cc(Cl)ccc1Cl)c1cc(S(=O)(=O)NC2CCCC2)ccc1F	2.7	11
O=C(NCC1CC1)C1C2C3C4CC5C3C5C4C12 (stereo unspecified)	1.9	-2
Cc1ccc(O)c(C(=O)CC(=O)c2cccs2)c1	3.0	-8
CN1CCN(Cc2cn[nH]c2-c2ccc(F)cc2)CC1	.	19
Cn1c(-c2cc(Br)cs2)nc(=O)c2cc(Cl)ccc21	0.6	.
O=c1cc(C(F)(F)F)nc(SCc2ccccn2)[nH]1	.	2
N#CC1=C(N)C(C#N)(C#N)C2(CCCC2)C2CCC=C12 (stereo unspecified)	-0.4	.
N#Cc1ccc(OCc2ccccc2)cc1	0.7	.
O=C(O)/C=C/c1ccc(OC(F)F)cc1	-0.3	10
CC(=O)Nc1ccc(/C=C2\CCc3ccccc3C2=O)cc1	2.8	6
CCOc1cc(/C=C2\N=C(c3ccc(Cl)cc3)OC2=O)cc(Br)c1OC(C)=O	-0.1	.
c1coc(C2=NCCN2)c1	-1.8	9
COc1ccc(C(c2nnnn2C(C)(C)C)N2CCN(c3ccccc3)CC2)cc1 (stereo unspecified)	0.8	6
Cc1ccc(C(=O)Nc2cccc(-c3cn4cccnc4n3)c2)cc1	.	1
CC(C)OC1=NS(=O)(=O)c2ccccc21	-3.8	2
O=C(NC12CC3CC(CC(C3)C1)C2)c1ccccc1O	1.2	18
O=C(CSCc1cnn(-c2ccccc2)c1-n1cccc1)N1CCN(c2ccccn2)CC1	.	8
CC1=C(C(=O)Nc2cccc(F)c2)C(c2cccs2)C2=C(CCCC2=O)N1 (stereo unspecified)	.	1
CC(C(=O)O)c1cccc(C(=O)c2ccccc2)c1 (stereo unspecified)	-2.5&4.5	.
CN(C(=O)CSc1cc(=O)n(C)c2ccccc12)C1CCCCC1	-0.9	17

Later entries
SMILES	MgrA DNA FP	Sa helicase inh
Fc1ccccc1CNCCCn1ccnc1	2.5	1
Cc1[nH]c2ccc(C(=O)OCC(=O)N3CCCC3=O)cc2c1C	.	12
CC[n+]1c(/C=C2\C=C(C)CC(C)(C)C2)oc2ccccc21	1.3	4
CC(=O)N1CCC(N(C(=O)Nc2ccccc2)C(C)C)CC1	1.7	7
COc1cccc(NC(=O)CCCSc2nc(-c3ccco3)cc(C(F)(F)F)n2)c1	.	-25
CCN(CC)c1ccc2cc(C(=O)Nc3ccccc3)c(=O)oc2c1	.	-102
CCOc1ccc(CCN2C(=O)C3C4C=CC(C4)C3C2=O)cc1OCC (stereo unspecified)	-1.2	6
O=C1Nc2ccccc2C(O)(C(=O)NC2CC2)N1c1ccccc1 (stereo unspecified)	3.5	9
CN(C(=O)COc1cc(=O)n(C)c2ccccc12)c1ccc(Br)cc1	.	7
COc1ccccc1CNC(=O)c1ccccn1	.	-9
FC(F)(F)c1ccc(CSc2c[nH]c3ccccc23)cc1	0.0	8
O=C(OCc1ccccc1)c1cccc(OC(F)F)c1	.	-15

Exported with values ahead of the structure: 6 of the compounds above
MgrA DNA FP	Sa helicase inh	compound
.	-25	COc1cccc(NC(=O)CCCSc2nc(-c3ccco3)cc(C(F)(F)F)n2)c1
.	-102	CCN(CC)c1ccc2cc(C(=O)Nc3ccccc3)c(=O)oc2c1
-1.2	6	CCOc1ccc(CCN2C(=O)C3C4C=CC(C4)C3C2=O)cc1OCC (stereo unspecified)
3.5	9	O=C1Nc2ccccc2C(O)(C(=O)NC2CC2)N1c1ccccc1 (stereo unspecified)
.	7	CN(C(=O)COc1cc(=O)n(C)c2ccccc12)c1ccc(Br)cc1
.	-9	COc1ccccc1CNC(=O)c1ccccn1

The results go on:
SMILES	MgrA DNA FP	Sa helicase inh
O=C(COC(=O)Cn1cc(C(F)(F)F)ccc1=O)NCc1ccco1	.	-7
O=C(CSc1nc2c(c(=O)n1-c1ccccc1)SCC2)Nc1ccccc1	.	6
Cn1c(C(C#N)c2ncc(Cl)cc2Cl)nc2ccccc21 (stereo unspecified)	-1.2	-2
CC1=NC(C(F)(F)F)(C(F)(F)F)C2=C(CC(C)(C)CC2=O)N1CC1CCCO1 (stereo unspecified)	.	40
CSc1n[nH]c(-c2ccc(C(F)(F)F)cc2)n1	-2.3	.
Cc1cc(NC(=O)c2ccc(-c3nc4ccccc4s3)s2)no1	.	5
CC(C)COC(=O)Cn1cnc2ccc(Br)cc2c1=O	2.8	6
NNc1nc2c(-c3ccc(Cl)cc3)nnn2c2ccccc12	.	-37
CCc1c(CN(C)Cc2ccccc2)csc1C	.	28
CC(C)(C)c1cc(N=O)cc(C(C)(C)C)c1O	-3.0	15
COc1ccc(C=Nc2ccccc2Sc2ccccc2)cc1O	1.0	12
CC(C)c1ccc(-c2noc(C3CCCN(C(=O)c4ccccc4)C3)n2)cc1 (stereo unspecified)	-2.5	12
CC(=O)Nc1onc(C)c1-c1nc(-c2ccc(Cl)cc2Cl)cs1	-1.2	.
Cc1oc(CC(C)C)cc1C(=O)Nc1cccc(C(=O)O)c1	2.6	2
CC1CC(=O)Nc2ccccc2N1C(=O)CSc1ccccn1 (stereo unspecified)	.	1
Nc1nc(-c2ccc(Br)s2)cs1	4.1	.
OC(CNC1Cc2ccccc2C1)COc1ccc(Cl)cc1 (stereo unspecified)	-3.2	.
Cc1nc2ncnn2c(C)c1CCC(=O)NCc1ccc(F)cc1	.	9
CC(=O)Nc1nonc1NC(=O)CSc1ncccn1	-2.3	17
Cc1ccc(OC(C)n2ccc3c2CCCC3)cc1 (stereo unspecified)	1.3	-12
CCCCN1C(=O)/C(=C2/Sc3ccc(OC)cc3N2C)SC1=S	9.5	-11
O=c1cc(-c2ccccc2)oc(=O)[nH]1	2.2	.
O=C(NC1CC1)C1CCN(c2nnc(-n3cccc3)s2)CC1	.	9
CCN(CC)c1ccc(/C=N/N=C/c2ccc(N(CC)CC)cc2)cc1	-0.5	.

At a glance, part of the list above:
SMILES	MgrA DNA FP	Sa helicase inh
Cc1[nH]c2ccc(C(=O)OCC(=O)N3CCCC3=O)cc2c1C	.	12
CC[n+]1c(/C=C2\C=C(C)CC(C)(C)C2)oc2ccccc21	1.3	4
CC(=O)N1CCC(N(C(=O)Nc2ccccc2)C(C)C)CC1	1.7	7

(next part)
SMILES	MgrA DNA FP	Sa helicase inh
COc1cccc(N(C(C)=O)C2C=CS(=O)(=O)C2)c1 (stereo unspecified)	.	6
CCCC(=O)NCc1cc(-c2nn(C)c(=O)c3ccccc23)ccc1C	.	19
CCN(C(=O)CN(C)C1CCCCC1)c1c(N)n(Cc2ccccc2)c(=O)[nH]c1=O	.	-1
O=C(Nc1cccc(C(F)(F)F)c1)c1cc2ccccc2o1	.	-13
O=C(NCc1cccn1Cc1ccccc1)Nc1ccccc1	.	-3
COC(=O)C1(C(F)(F)F)C2C=CC(C2)N1S(=O)(=O)c1ccccc1 (stereo unspecified)	0.9	13
CCOc1ccccc1OCC(=O)OC1CCOC1=O (stereo unspecified)	.	5
O=c1c2c(nc3[nH]ncn13)CCN(Cc1ccccc1)C2	-0.5	10
O=C(NC(Cc1ccccc1)C(=O)OCc1ccccc1)c1cccs1 (stereo unspecified)	-2.1	12
Cc1noc2ncnc(N3CCCC(C(=O)NCCCN4CCCC4=O)C3)c12 (stereo unspecified)	.	17
O=C(CCCn1c(=O)c2ccccc2n(CC(=O)c2ccccc2)c1=O)NC1CCCC1	.	2
O=C(CSCc1cnn(-c2ccccc2)c1-n1cccc1)N1CCC(N2CCCCC2)CC1	-0.5	0
CCOC(=O)c1c(-c2ccccc2)n2c3c(cccc13)SCC2	.	11
O=C(CSc1ncnc2ccccc12)Nc1cccc(F)c1	-2.7	4
C=C(C)c1cccc(C(C)(C)NC(=O)NCc2cccnc2)c1	0.3	-1
COC(=O)CNC(=O)c1cc(=O)c2ccccc2o1	.	11
COc1ccccc1CCN=Cc1ccnc(SCc2ccc(Cl)cc2Cl)n1	1.8	.
O=C(NC1CCCC1)N1CCC2(CC1)Oc1ccccc1C(=O)N2Cc1ccc(F)cc1	2.0	9
COc1ccc(C2=NN(C(=O)Cn3cc(C(F)(F)F)ccc3=O)C(c3ccco3)C2)cc1 (stereo unspecified)	.	6
CCN(CC)C(=O)CSc1nc2sccc2c(=O)n1-c1ccccc1	.	-8
O=c1c(Oc2ccccc2)coc2cc(OCc3ccccc3)ccc12	-2.5	-1
COc1cccc(NC(=O)C2(C#N)Cc3ccccc3N3CCCC32)c1 (stereo unspecified)	.	-24
N#CC(C#N)=c1ccc(=C(C#N)C#N)cc1	7.3	.
O=C(Nc1ccc2c(c1)COC2=O)c1cccc(Cl)c1	-0.9	9
CC(=O)Nc1cc2c(cc1C(=O)c1ccc(Br)cc1)OCCO2	-2.8	0
COc1ccc(C(=O)COC(=O)c2nn(C)cc2Cl)cc1	-4.2	17
O=C(CS(=O)(=O)c1ccccc1)Nc1cccnc1	5.5	0

Filtered by structure, the compounds so far with a cyano group (nine)
SMILES	MgrA DNA FP	Sa helicase inh
CSC(=Nc1ccc(C(C)C)cc1)NC#N	1.9	.
COC(=O)c1c(SCc2ccc(C#N)cc2)nc(=O)[nH]c1C	.	-10
Cc1sc(/N=C/c2ccc(Cl)c(Cl)c2)c(C#N)c1C	-0.9	2
CC1(C)CC(=O)C2=C(C1)OC(N)=C(C#N)C21C(=O)N(CCc2ccccc2)c2ccccc21 (stereo unspecified)	1.1	-3
N#CC1=C(N)C(C#N)(C#N)C2(CCCC2)C2CCC=C12 (stereo unspecified)	-0.4	.
N#Cc1ccc(OCc2ccccc2)cc1	0.7	.
Cn1c(C(C#N)c2ncc(Cl)cc2Cl)nc2ccccc21 (stereo unspecified)	-1.2	-2
COc1cccc(NC(=O)C2(C#N)Cc3ccccc3N3CCCC32)c1 (stereo unspecified)	.	-24
N#CC(C#N)=c1ccc(=C(C#N)C#N)cc1	7.3	.

Bioassay records as filed in PubChem BioAssay.

Only part of the results is shown (hit frequency here may not be typical).
